Compound activity from PubChem BioAssay.
LASV entry inh = blocks Lassa virus binding to or entry into cells | Lassa virus pseudotype entry inhibition, cell reporter; control for the full effect not named in the record | Potency, µM (titrated, usually from 37.9 µM), without a hit: top-dose activity change, negative = inhibition, hits mostly inhibitors | actives 1.2% (n = 300,000); active means well fitted inhibition curve with a large enough effect; inconclusive means small, poorly fitted or top-dose-only effect, or effect the other way; inactive means flat fitted curve, though single readings scatter; tested in HEK293 cells; also: % is scaled to controls: 0 for no effect and ±100 for the full control effect; nearly all actives have a fitted effect of over 50% in size; luciferase read-out
SARS PLP yeast = SARS-CoV PLP inhibition in yeast | S. cerevisiae expressing SARS-CoV PLpro, growth rescue; control for the full effect not named in the record | Potency, µM (titrated, usually from 32.9 µM), inactives show at the top dose activity, positive = growth rescue | actives 0.19% (n = 330,000); active means well fitted rising curve with a large enough effect; inconclusive means small, poorly fitted or top-dose-only effect; inactive means no such curve, though single readings can be large or run the other way; also: 0% is about no effect; nearly all actives have a fitted effect of over 55% in size; growth read by luminescence after 48 h
RE007 growth inh = less growth of the S. pombe RE007 Vpr strain; actives 0.21% (n = 360,000); AID 651644; S. pombe RE007 Vpr strain, BacTiter-Glo ATP luminescence, 24 h; control for the full effect not named in the record; Potency, µM (top dose mostly 92.2 µM), without a hit: at the highest dose activity change, negative = less growth; active = well fitted falling curve with a large enough effect; inconclusive = small, poorly fitted or top-dose-only effect; inactive = no such curve, though single readings can be large or run the other way;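 also: % is scaled to controls: 0 for no effect and ±100 for the full control effect; nearly all actives have a fitted effect of over 50% in size; the assay follows cell death caused by Vpr and the record does not say whether a fall means rescue or toxicity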
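Fission yeast strain RE007, carrying one chromosomally integrated HIV-1 vpr copy, was seeded at OD 0.01 in PMG+AL medium with 23 nL pinned compound. After 24 h at 30 °C and 99% humidity, viability was read by BacTiter-Glo luminescence.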
Cruzain inh Det = cruzain (T. cruzi) inhibition with detergent; P25779; purified cruzain, Z-FR-AMC fluorescence, 0.01% Triton; Potency, µM, inactives show max response, negative = inhibition, hits mostly inhibitors; actives 0.43% (n = 200,000);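 also: plate controls were neutral wells for no effect and buffer without enzyme for full effect; nearly all actives have a fitted effect of over 40% in size; top concentration of the series not given in the record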
Target sequence (P25779 123-467 limits assumed): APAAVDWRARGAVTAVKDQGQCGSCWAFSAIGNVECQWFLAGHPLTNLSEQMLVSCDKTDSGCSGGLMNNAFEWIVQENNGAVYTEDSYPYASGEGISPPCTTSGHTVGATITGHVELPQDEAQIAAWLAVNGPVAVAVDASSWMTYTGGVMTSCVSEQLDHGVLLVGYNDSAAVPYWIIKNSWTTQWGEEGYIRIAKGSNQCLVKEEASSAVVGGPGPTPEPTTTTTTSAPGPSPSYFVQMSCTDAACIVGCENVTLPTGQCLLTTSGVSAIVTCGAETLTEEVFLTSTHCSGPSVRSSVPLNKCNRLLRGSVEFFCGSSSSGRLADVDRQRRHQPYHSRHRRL
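Compounds were screened in titration against cruzain (1.5 nM) with 0.01% Triton X-100 to counter colloidal aggregation. Activity was the AMC fluorescence increase over 60 s after adding 2 uM Z-FR-AMC at pH 5.5.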
Cruzain noTriton = inhibitors of Trypanosoma cruzi cruzain without detergent; P25779; purified cruzain, Z-FR-AMC fluorescence, no detergent; Potency, µM, for inactives: max response, negative = inhibition, usual class: inhibitors; actives 2.3% (n = 200,000); AID 1476;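 also: plate controls were enzyme without inhibitor for no effect and buffer without enzyme for full effect; nearly all actives have a fitted effect of over 40% in size; top concentration of the series not given in the record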
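Detergent-free condition (0.00005% Triton X-100) in acetate buffer pH 5.5 with DTT. 1.5 nM enzyme and compound were pre-mixed 15 min, then 2 uM Z-FR-AMC substrate added; reaction progress from fluorescence change between first and third reads (60 s).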
NS1 inh = influenza NS1 inhibition. S. cerevisiae slowed by influenza A NS1, growth recovery by OD600. Potency, µM (series often up to 46.1 µM), for the others: top-dose activity, positive = more growth. actives 0.4% (n = 270,000); active means well fitted rising curve with a large enough effect; inconclusive means small, poorly fitted or top-dose-only effect; inactive means no such curve, though single readings can be large or run the other way; also: nearly all actives have a fitted effect of over 50% in size
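Read-out: OD600 growth recovery of NS1-expressing budding yeast. Cells grown overnight at 30C in -URA glucose medium, washed, resuspended and diluted 1:100 in 2% galactose assay medium, pH 6.0. Same strain lacking NS1 served as positive control.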
Marburg entry inh = blocks Marburg virus binding to or entry into cells. Marburg virus pseudotyped entry inhibition, cell reporter; control for the full effect not named in the record; about a third of the inactives were read at about 46 µM. Potency, µM (series often up to 37.8 µM), for inactives: at the top dose activity change, negative = inhibition, actives largely listed as inhibitors. actives 1.8% (n = 300,000). AID 540276; active = well fitted inhibition curve with a large enough effect; inconclusive = small, poorly fitted or top-dose-only effect, or effect the other way; inactive = flat fitted curve, though single readings scatter; tested in HEK293 cells; about a fifth of its hits are not listed in these tables; also: % is scaled to controls: 0 for no effect and ±100 for the full control effect; luciferase read-out
StopGo reporter = lowers the luciferase signal of an FMDV 2A StopGo reporter; human cells with a luciferase reporter of 2A StopGo recoding; control for the full effect not named in the record; AID 1159524; Potency, µM (doses to about 57.9 µM), for the others: at the top dose signal change, negative = less light; actives 1.2% (n = 410,000); active = well fitted falling curve with a large enough effect; inconclusive = small, poorly fitted or top-dose-only effect; inactive = no such curve, though single readings can be large or run the other way; tested in HEK293T cells; also: % is scaled to controls: 0 for no effect and ±100 for the full control effect; nearly all actives have a fitted effect of over 45% in size; luciferase light after 4 h
The depositor's hits bear a star; [ ] = another dose, or the depositor's remark. Unless noted, calls follow the shape of the dose curve; as a rule, active = well fitted curve in the direction sought with a large enough effect; inconclusive = small, poorly fitted or top-dose-only effect, or another doubt; inactive = no such curve, though single readings can be large; an effect the other way counts as inactive or inconclusive. Potency is read from the fitted curve at half-maximal effect.

`COCC(=O)Nc1sc2c(c1C(=O)OC)C(C(=O)OC)CC2` (configuration not stated) gave LASV entry inh -3%, SARS PLP yeast -5%, RE007 growth inh 0%, Cruzain inh Det 2.8%, Cruzain noTriton -4%, NS1 inh 2%, Marburg entry inh 8% and StopGo reporter -19%.
O=C(OCC(=O)N1CCCCCC1)c1n[nH]c(=O)c2ccccc12 was read as LASV entry inh 10%, SARS PLP yeast 1%, RE007 growth inh 3%, Cruzain inh Det 0.6%, Cruzain noTriton -4%, NS1 inh 0%, Marburg entry inh 22% and StopGo reporter 7%.
Screening COC(=O)c1ccc(Nc2ncnc3c2cnn3-c2cccc(C)c2)cc1 returned SARS PLP yeast 3%, RE007 growth inh 7%, NS1 inh -3% and StopGo reporter -11%.
`CCOc1ccc2nc(NC(=O)Cn3cnc4c3c(=O)n(C)c(=O)n4C)sc2c1` gave LASV entry inh 4%, SARS PLP yeast 2%, RE007 growth inh 9%, Cruzain inh Det -2.3%, Cruzain noTriton inconclusive, NS1 inh -33%, Marburg entry inh 17% and StopGo reporter 7%.
`CCc1cc(=O)[nH]c(SCc2nc(-c3ccccc3C)no2)n1` gave LASV entry inh -3%[46.1 µM], Cruzain inh Det -5.8%, Cruzain noTriton -14% and StopGo reporter -16%.
Screening CN1CCN(c2ccc(C(CC(N)=O)NC(=O)Cc3ccc(Br)cc3)cc2[N+](=O)[O-])CC1 (configuration not stated) returned SARS PLP yeast 6%, RE007 growth inh -22%, NS1 inh inconclusive and StopGo reporter -15%.
For CCN1Cc2ccccc2-c2ccccc2S1(=O)=O the results were SARS PLP yeast -10%, RE007 growth inh -4%, Marburg entry inh 1% and StopGo reporter 0%.
For CCOC(=O)C1=NN(C(=O)Nc2ccc(OC)cc2)C2C(=O)N(c3cccc(C(F)(F)F)c3)C(=O)C12 (configuration not stated) the results were LASV entry inh 7%, SARS PLP yeast 14%, RE007 growth inh -3%, Cruzain inh Det -2.4%, Cruzain noTriton inconclusive, NS1 inh -6%, Marburg entry inh -10% and StopGo reporter -6%.
For COC(=O)CC1C(=O)NCCN1C(=S)Nc1ccc(F)cc1 (configuration not stated) the results were LASV entry inh 2%[46.1 µM], SARS PLP yeast 0%, RE007 growth inh 2%, NS1 inh 2%, Marburg entry inh 13%[46.1 µM] and StopGo reporter 6%.
For O=C(CSc1nnnn1C1CCCC1)NCc1ccc2c(c1)OCO2 the results were LASV entry inh -17%, SARS PLP yeast 4%, RE007 growth inh 2%, Cruzain inh Det -4.1%, Cruzain noTriton 9%, NS1 inh -11%, Marburg entry inh 9% and StopGo reporter 12%.
`COc1ccccc1Oc1ccc2c(c1)C(=O)N(c1ccc(O)cc1)C2=O` gave LASV entry inh -19%, SARS PLP yeast 2%, RE007 growth inh 9%, Cruzain inh Det 1.2%, Cruzain noTriton 20µM*, NS1 inh -3%, Marburg entry inh inconclusive and StopGo reporter -13%.
Screening CCSc1nc2cc(C(=O)OC)ccc2c(=O)n1CC returned LASV entry inh -22%, SARS PLP yeast 3%, RE007 growth inh 3%, Cruzain inh Det -6.9%, Cruzain noTriton -3%, NS1 inh -33% and Marburg entry inh 2%.
`CC(C)c1nc(C#N)c(NCCCn2ccnc2)o1` gave LASV entry inh 5%, SARS PLP yeast -2%, RE007 growth inh -6%, Cruzain inh Det 1.5%, Cruzain noTriton inconclusive, NS1 inh 4%, Marburg entry inh 15% and StopGo reporter -8%.
For O=C(Nc1ccccc1)Nc1ccccc1Br the results were LASV entry inh inconclusive, SARS PLP yeast -2%, RE007 growth inh -22%, Marburg entry inh -22% and StopGo reporter 41%[activator].
For Nc1ccc2oc(=O)c3ccccc3c2c1 the results were LASV entry inh -1%, SARS PLP yeast -13%, RE007 growth inh -17%, Cruzain inh Det -4.1%, Cruzain noTriton -14%, NS1 inh -61%, Marburg entry inh inconclusive and StopGo reporter 4%.
`CCCC(=O)N1CCN(c2ccc(NC(=O)c3ccc([N+](=O)[O-])o3)cc2)CC1` gave LASV entry inh inconclusive, SARS PLP yeast 0%, RE007 growth inh -21%, Marburg entry inh inconclusive and StopGo reporter -20%.
Screening CCOc1ccc(-n2c(SCC(=O)Nc3cc(C)on3)nnc2-c2c[nH]c3ccccc23)cc1 returned LASV entry inh inconclusive, SARS PLP yeast 3%, RE007 growth inh -5%, Cruzain inh Det 7.4%, Cruzain noTriton 2%, NS1 inh 8%, Marburg entry inh -4% and StopGo reporter 11%.
`Cc1cc([N+](=O)[O-])cc2ncccc12` gave LASV entry inh 14%, SARS PLP yeast 13%, RE007 growth inh 0%, Cruzain inh Det 3.1%, Cruzain noTriton -3%, NS1 inh 2%, Marburg entry inh 7% and StopGo reporter -10%.
COc1ccc(-c2csc3ncnc(N4CCN(c5cccc(OC)c5)CC4)c23)cc1 was read as LASV entry inh -6%, SARS PLP yeast -3%, RE007 growth inh -15%, NS1 inh 11%, Marburg entry inh inconclusive and StopGo reporter inconclusive.
Screening Cc1ccc(C(=O)OCC(=O)c2c[nH]c3ccccc23)cc1NC(=O)c1ccco1 returned LASV entry inh -17%, SARS PLP yeast 1%, RE007 growth inh 1%, NS1 inh 10%, Marburg entry inh inconclusive and StopGo reporter 0%.
`Cc1cc(Br)ccc1NC(=O)Cn1cc(S(=O)(=O)N2CCN(c3ccccc3F)CC2)c2ccccc2c1=O` gave LASV entry inh -18%[46.1 µM], Cruzain inh Det -1.7%, Cruzain noTriton -15%, Marburg entry inh 20%[46.1 µM] and StopGo reporter 9%.
CN1CCN(C=Nc2nc3ccccc3nc2N2CCCC2)CC1 was read as LASV entry inh 5%, SARS PLP yeast 0%, RE007 growth inh -17%, NS1 inh 0%, Marburg entry inh 8%[46.1 µM] and StopGo reporter -8%.
For Cc1ccc2nc(NC(=O)CSc3nccn3Cc3ccccc3)sc2c1 the results were LASV entry inh 14%[46.1 µM], Cruzain inh Det -5.2%, Cruzain noTriton -28% and StopGo reporter 0%.
Screening COc1cccc(C(=O)Nc2ccc(-n3nncc3-c3ccccc3)cc2)c1OC returned LASV entry inh -3%[46.1 µM], Cruzain inh Det 0.5%, Cruzain noTriton 15% and StopGo reporter -5%.
`CC(=O)c1cccc(NC(=O)CSc2nc3c(=O)n(C)c(=O)n(C)c3n2C)c1` gave LASV entry inh -17%[46.1 µM], Cruzain inh Det -0.3%, Cruzain noTriton inconclusive and StopGo reporter -9%.
`O=C1COc2ccc(S(=O)(=O)N3CCN(c4cccc(Cl)c4)CC3)cc2N1` gave SARS PLP yeast 10%, RE007 growth inh 4%, NS1 inh 5% and StopGo reporter -24%.
Screening CCC(C)(C(=O)NC1CCCCC1)N(CC1CCCO1)C(=O)c1ccccn1 (configuration not stated) returned LASV entry inh -2%, SARS PLP yeast -1%, RE007 growth inh 25%, Cruzain inh Det 0.8%, Cruzain noTriton 3%, NS1 inh -3%, Marburg entry inh -6% and StopGo reporter 7%.
`COc1ccc(OC)c(NC(=O)C(CC(=O)O)NCc2ccco2)c1` (configuration not stated) gave LASV entry inh 0%, SARS PLP yeast 4%, RE007 growth inh 14%, Cruzain inh Det 4.5%, Cruzain noTriton -8%, NS1 inh -2%, Marburg entry inh 14%[46.1 µM] and StopGo reporter 10%.
For Cc1cc(COC(=O)C2N3C(=O)[C@@H](NC(=O)COc4ccccc4)[C@H]3SC2(C)C)on1 (some centres not stated) the results were SARS PLP yeast -5%, RE007 growth inh -2%, NS1 inh -15% and StopGo reporter -16%.
Screening CCNc1ccc(S(=O)(=O)N(C)C)cc1NCC(=O)Nc1ccccc1Br returned LASV entry inh -17%, SARS PLP yeast -4%, RE007 growth inh -10%, NS1 inh -14%, Marburg entry inh -19% and StopGo reporter -21%.
`O=c1[nH]c(/C=C/c2cccc3ccccc23)nc2ccccc12` gave LASV entry inh 0%, SARS PLP yeast 0%, RE007 growth inh 1%, NS1 inh 2%, Marburg entry inh inconclusive and StopGo reporter 39%[activator].
Screening CN(C)c1ccc(/C=N/NC(=O)CN2CCCCC2)cc1Br returned SARS PLP yeast -6%, RE007 growth inh -3%, NS1 inh 21% and StopGo reporter -2%.
`CCOC(=O)c1sc2nc(NC(=O)C(C)(C)C)sc2c1C` gave SARS PLP yeast -16%, RE007 growth inh -3%, Cruzain inh Det -11%, Cruzain noTriton 8%, NS1 inh 18% and StopGo reporter 0%.
For CCN1CNC(=S)N(Cc2ccccc2)C1 the results were LASV entry inh 0%, SARS PLP yeast 25%, RE007 growth inh 5%, Cruzain inh Det -0.4%, Cruzain noTriton 10%, NS1 inh 18%, Marburg entry inh 8% and StopGo reporter -12%.
For Cc1cc(NC(=O)c2noc3c2CCCCC3)nn1Cc1ccc(Cl)cc1 the results were LASV entry inh -25%, SARS PLP yeast -4%, RE007 growth inh 2%, Cruzain inh Det -2.5%, Cruzain noTriton 15%, NS1 inh -8%, Marburg entry inh -7% and StopGo reporter 16%.
Screening CCOc1ccc(Oc2nc(NCC(C)C)nc(OC)n2)nn1 returned SARS PLP yeast 9%, RE007 growth inh 4%, Cruzain inh Det 2.1%, Cruzain noTriton 15%, NS1 inh 8% and StopGo reporter -1%.
Screening O=C(CCc1nnc(C2CCCCC2)o1)NCc1cccc(-n2cccn2)c1 returned LASV entry inh 17%[46.1 µM], SARS PLP yeast 0%, RE007 growth inh 1%, NS1 inh -4%, Marburg entry inh 3%[46.1 µM] and StopGo reporter -7%.
Screening Cc1ccc(C(O)c2ccncc2)cc1 (configuration not stated) returned LASV entry inh inconclusive, SARS PLP yeast -4%, RE007 growth inh 11%, Cruzain inh Det -4.1%, Cruzain noTriton -2%, NS1 inh -3%, Marburg entry inh -1% and StopGo reporter -22%.
Screening CC(NC(=O)c1ccccc1)c1nc2ccccc2n1Cc1ccc(C#N)cc1 (configuration not stated) returned LASV entry inh 14%, SARS PLP yeast -3%, RE007 growth inh 0%, Cruzain inh Det 1.8%, Cruzain noTriton 0%, NS1 inh -14%, Marburg entry inh -28%[46.1 µM] and StopGo reporter -19%.
`O=C(CS(=O)(=O)c1ccccc1)Nc1nnc(Cc2ccccc2)s1` gave LASV entry inh 13%[46.1 µM], SARS PLP yeast -2%, RE007 growth inh 5%, NS1 inh 8%, Marburg entry inh 5%[46.1 µM] and StopGo reporter 0%.
Screening COCCNC(=S)N(CCc1c(C)[nH]c2ccc(OC)cc12)Cc1cccnc1 returned SARS PLP yeast 0%, RE007 growth inh 8%, NS1 inh 2% and StopGo reporter -7%.
